ALR H2O2 inh: blocks human ALR sulfhydryl oxidase activity. hit rate 3.8% among 290,000. inhibition, % (test concentration not listed). AID 485317. purified ALR, DTT oxidation, H2O2 HRP-luminol luminescence. P55789;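 active means mean and each replicate at 75% or more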;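 further: stock transfer was 7.5 nL into about 7.5 µL; 0% = neutral wells and 100% = wells with inactivated enzyme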
Target sequence (P55789 whole entry, looked up): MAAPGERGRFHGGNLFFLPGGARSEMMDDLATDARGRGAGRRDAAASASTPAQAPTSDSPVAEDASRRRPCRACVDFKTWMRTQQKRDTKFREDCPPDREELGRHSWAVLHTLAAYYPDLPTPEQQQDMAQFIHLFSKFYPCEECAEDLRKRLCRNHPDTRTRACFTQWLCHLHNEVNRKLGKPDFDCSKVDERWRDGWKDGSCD
UCH37 inh: blocks the human deubiquitinase UCH37 | Q9Y5K5 | inhibition, % (no concentration beside the values) | AID 588478 | hit rate 0.33% among 330,000 | purified proteasome/UCH37, Ub-AMC cleavage fluorescence;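 active means mean of two replicates above 20%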;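 further: 0% = compound-free wells with enzyme and 100% = wells lacking proteasome; stock transfer was 100 nL into about 20 µL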
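Signal – fluorescence, ex 355 nm, em 460 nm · System – Proteasome-bound UCH37 · Input – 0.15 nM proteasome as dispensed · Timing – 30 min preincubation with enzyme, 25 min cleavage at room temperature · Read-out basis – percent inhibition of cleavage signal versus uninhibited and no-proteasome wells · Medium – Tris-HCl pH 7.4 with ATP-MgCl2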
HNF4A DNA FP: change in binding of human HNF4 alpha to DNA; P41235; hit rate 0.3% among 360,000; HNF4a-FITC DNA binding, fluorescence polarization, 1 h; AID 1224865; activity change, % at 10 µM; in the data active means activity change above about 30%, passing the limit was not always enough;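 further: controls were the assay level and a saturating level of protein; the project sought stronger binding though the title names inhibitors; some compounds called inactive have numbers as strong as hits; positive values seem to mean higher polarization but the record does not say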
Target sequence (P41235 whole entry, looked up): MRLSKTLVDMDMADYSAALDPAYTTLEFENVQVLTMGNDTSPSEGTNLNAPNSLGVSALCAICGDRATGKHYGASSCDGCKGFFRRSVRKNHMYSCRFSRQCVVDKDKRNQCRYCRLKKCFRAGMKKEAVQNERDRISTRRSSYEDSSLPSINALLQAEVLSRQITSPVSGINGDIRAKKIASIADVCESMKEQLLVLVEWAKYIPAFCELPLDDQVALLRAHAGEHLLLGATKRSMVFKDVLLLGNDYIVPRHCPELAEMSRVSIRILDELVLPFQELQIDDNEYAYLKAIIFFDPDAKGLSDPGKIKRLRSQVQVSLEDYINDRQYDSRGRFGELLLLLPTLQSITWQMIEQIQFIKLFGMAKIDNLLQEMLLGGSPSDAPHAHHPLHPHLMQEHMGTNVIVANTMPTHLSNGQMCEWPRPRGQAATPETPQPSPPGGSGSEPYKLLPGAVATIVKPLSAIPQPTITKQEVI
rRNA inh HTS: inhibits bacterial ribosomal RNA function over humanized ribosomes; E. coli WT GFP vs humanized-ribosome RFP mutants, fluorescence, 24 h; stronger effect = lower value; DMSO median 0, no signal -100; GFP signal change (wild-type ribosome), % (no concentration beside the values); hit rate 1.6% among 350,000; AID 720706;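 active means significant combined selectivity score with lowered wild-type GFP, culture density cut under 30%, mutant RFP and density less affected; inactive means any of these conditions unmet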; further: one replicate is shown; some compounds called inactive have numbers as strong as hits
Ecoli growth: inhibitors of Escherichia coli growth; AID 1053175; OD600, 23 h; stronger effect = lower value; OD600 absorbance (test concentration not listed); hit rate 0.21% among 330,000;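 active means OD600 absorbance below the run mean of sample wells minus 3.6 SD, in any replicate, cut at about 0.56 in these data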;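 further: stock transfer was 300 nL into about 60 µL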
B2AR ag: agonists of human beta-2 adrenergic receptor inducing internalization. hit rate 0.43% among 340,000. AID 504454. Am2.2-beta2AR cells, FAP receptor internalization, flow cytometry; reference of the scale not given here. P07550. response, % (concentration not given with the values);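 active means response above a set limit, near 3 SD of response in nonfluorescent compounds, cut at about 42% in these data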;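 further: stock transfer was 100 nL into about 11 µL; a reference agonist was the positive control; negative values mostly stem from fluorescent compounds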
Target sequence (P07550 whole entry, looked up): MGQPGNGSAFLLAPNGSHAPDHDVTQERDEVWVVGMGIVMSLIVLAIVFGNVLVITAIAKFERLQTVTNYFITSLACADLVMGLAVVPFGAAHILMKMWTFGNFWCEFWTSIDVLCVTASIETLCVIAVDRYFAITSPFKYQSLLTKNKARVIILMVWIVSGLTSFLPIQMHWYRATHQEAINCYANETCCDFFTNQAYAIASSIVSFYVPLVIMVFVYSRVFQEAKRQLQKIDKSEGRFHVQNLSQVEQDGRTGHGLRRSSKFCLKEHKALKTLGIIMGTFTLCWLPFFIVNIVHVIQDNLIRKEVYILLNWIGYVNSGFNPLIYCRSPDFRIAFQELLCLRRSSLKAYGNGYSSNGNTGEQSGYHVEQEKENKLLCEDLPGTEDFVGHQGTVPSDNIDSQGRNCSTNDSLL
FGF22 binding: FGF22 (human) thermal shift binding; Q9HCT0; recombinant FGF22 thermal shift, SYPRO orange fluorescence; percent of sucrose octasulfate shift, DMSO zero; calls only at 9.99 µM; hit rate 1.5% among 340,000; AID 651658;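 active means melting point raised past a set limit in the mean and every replicate; three in four hits are not shown here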
rRNA inh HTS OD600: also measured in rRNA inh HTS; calls as there; OD600 change, %; measured here: OD600 growth;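 optical density of the mix in the first replicate; 0 = DMSO median and -100 = no signal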
rRNA inh HTS RFP: second read-out of rRNA inh HTS, no call of its own (marks repeat the call); RFP signal change, %; measured here: RFP humanized mutant strains;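 first replicate; 0 = DMSO median and -100 = no signal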
* = called active by the depositor; & = joins results of further samples. A portion of the library; count on the stated rates, not on these rows.

Results for CCN(CCCNC(=O)Cn1cc2c(n1)CCCC2)c1cccc(C)c1 ?
ALR H2O2 inh: 99*; UCH37 inh: 4.5; HNF4A DNA FP: 3.5; rRNA inh HTS: -25; Ecoli growth: 0.78; B2AR ag: 5; FGF22 binding: inactive; rRNA inh HTS OD600: -39; rRNA inh HTS RFP: -7.6

Results for CC(C)CC(=O)c1c[nH]c(C(=O)NCc2cccnc2)c1 ?
UCH37 inh: 5.1; HNF4A DNA FP: -2.2; rRNA inh HTS: 3; Ecoli growth: 0.7; B2AR ag: 6; FGF22 binding: inactive; rRNA inh HTS OD600: 5; rRNA inh HTS RFP: 1.7

What do the screens show for `NS(=O)(=O)c1ccc(CNC(=S)Nc2ccc(Cl)c(Cl)c2)cc1`?
ALR H2O2 inh: -17; UCH37 inh: 2.2; HNF4A DNA FP: 2.8; rRNA inh HTS: -57; Ecoli growth: 0.64; B2AR ag: 0; FGF22 binding: inactive; rRNA inh HTS OD600: -81; rRNA inh HTS RFP: -18

Results for Cc1nc(SCC(=O)N2c3ccccc3Sc3ccccc32)n[nH]1 ?
ALR H2O2 inh: -25; UCH37 inh: 1.0; HNF4A DNA FP: 0.0; Ecoli growth: 0.72; B2AR ag: 7

Results for COc1ccc(CC(=O)Nc2ccc(OC)nc2)cc1 ?
ALR H2O2 inh: -12; UCH37 inh: 1.0; HNF4A DNA FP: -3.7; rRNA inh HTS: 5; Ecoli growth: 0.65; B2AR ag: 2; FGF22 binding: inactive; rRNA inh HTS OD600: 15; rRNA inh HTS RFP: 0.4

How did CN1CCc2nc(SCc3ccc(Cl)cc3)c(C#N)c(-c3cccs3)c2C1 do in these assays?
ALR H2O2 inh: 63; UCH37 inh: 4.6; rRNA inh HTS: -55; Ecoli growth: 0.71; FGF22 binding: inactive; rRNA inh HTS OD600: -77; rRNA inh HTS RFP: -29

How did COc1ccc(N(CC(=O)N2CCc3ccccc3C2)S(C)(=O)=O)cc1 do in these assays?
ALR H2O2 inh: -2; UCH37 inh: 3.3; HNF4A DNA FP: -1.3; rRNA inh HTS: 8; Ecoli growth: 0.71; B2AR ag: 6; rRNA inh HTS OD600: 1; rRNA inh HTS RFP: 0.0

What do the screens show for `O=C(OCc1ccc(F)cc1)c1cc2ccccc2cc1O`?
ALR H2O2 inh: -3; UCH37 inh: 6.2; HNF4A DNA FP: 1.1; rRNA inh HTS: 3; Ecoli growth: 0.68; B2AR ag: -13; FGF22 binding: inactive; rRNA inh HTS OD600: 7; rRNA inh HTS RFP: 1.9

What do the screens show for `CC(C)N1C(=O)S/C(=C/c2ccccc2OCc2ccc(C(=O)O)cc2)C1=O`?
ALR H2O2 inh: 33; UCH37 inh: 4.4; HNF4A DNA FP: 1.7; rRNA inh HTS: -31; Ecoli growth: 0.73; B2AR ag: 1; FGF22 binding: inactive; rRNA inh HTS OD600: -51; rRNA inh HTS RFP: -2.6

Results for O=C(NCC(F)(F)F)c1ccc(S(=O)(=O)N2CCN(C(=O)C3CCCO3)CC2)cc1 (stereo not drawn) ?
ALR H2O2 inh: -1; HNF4A DNA FP: -3.0; rRNA inh HTS: 8; B2AR ag: 0; FGF22 binding: inactive; rRNA inh HTS OD600: 9; rRNA inh HTS RFP: 0.2

What do the screens show for `N#Cc1c(-c2cccc(Br)c2)cc(-c2ccco2)[nH]c1=O`?
ALR H2O2 inh: 61; UCH37 inh: -318; HNF4A DNA FP: -9.1; rRNA inh HTS: 19; Ecoli growth: 0.68; B2AR ag: -2; FGF22 binding: inactive; rRNA inh HTS OD600: 14; rRNA inh HTS RFP: 21

What do the screens show for `C[C@@H]1CN([C@H](C)CO)C(=O)CCCn2nncc2CO[C@@H]1CN(C)S(=O)(=O)c1cccs1`?
HNF4A DNA FP: 2.7; rRNA inh HTS: 3&-3; FGF22 binding: inactive; rRNA inh HTS OD600: 3&-6; rRNA inh HTS RFP: -5.1&-3.1

How did C[C@H](NC(=O)Cc1cccc2ccccc12)C(=O)NCc1ccccc1 do in these assays?
ALR H2O2 inh: 2; UCH37 inh: 3.2; HNF4A DNA FP: 0.6; rRNA inh HTS: -32*; Ecoli growth: 0.65; B2AR ag: 6; FGF22 binding: inactive; rRNA inh HTS OD600: -8.8*; rRNA inh HTS RFP: 5.4*

What do the screens show for `CC(C)CC(=O)Nc1ccc(-c2nc3ccccc3c(=O)[nH]2)cc1`?
ALR H2O2 inh: -1; HNF4A DNA FP: -0.6; B2AR ag: 9; FGF22 binding: inactive

What do the screens show for `O=C(NCc1nnc(SCC(=O)N2CCOCC2)o1)c1c(F)cccc1Cl`?
ALR H2O2 inh: -4; UCH37 inh: -0.8; HNF4A DNA FP: 2.0; rRNA inh HTS: 22; Ecoli growth: 0.68; B2AR ag: -4; FGF22 binding: inactive; rRNA inh HTS OD600: 23; rRNA inh HTS RFP: -0.9

What do the screens show for `Nc1nc2n(n1)C(c1cccs1)CC(c1ccc(Br)cc1)N2` (stereo not drawn)?
UCH37 inh: -14; HNF4A DNA FP: -9.5; Ecoli growth: 0.72; B2AR ag: -12

What do the screens show for `Cc1onc(-c2ccccc2)c1C(=O)Nc1ccnn1C1CCCCC1`?
ALR H2O2 inh: 0; UCH37 inh: -0.5; HNF4A DNA FP: 0.6; Ecoli growth: 0.66; B2AR ag: 1

What do the screens show for `O=C(NC1CC1)c1cc2c(F)cccc2s1`?
UCH37 inh: 3.3; HNF4A DNA FP: -4.2; Ecoli growth: 0.72; B2AR ag: -1

What do the screens show for `CCN(CC(=O)Nc1cccc(C(C)=O)c1)S(=O)(=O)c1ccc(OC)cc1`?
ALR H2O2 inh: 6; UCH37 inh: 2.1; HNF4A DNA FP: -1.2; Ecoli growth: 0.7; B2AR ag: -1

How did O=C(NCCc1ccccc1)NC(Cc1ccccc1)C(=O)O (stereo not drawn) do in these assays?
ALR H2O2 inh: -20; UCH37 inh: 2.8; HNF4A DNA FP: -1.0; rRNA inh HTS: 0; Ecoli growth: 0.7; B2AR ag: -3; FGF22 binding: inactive; rRNA inh HTS OD600: -7; rRNA inh HTS RFP: 7.7

Results for CC(C)C(NC(=O)c1ccc(F)cc1)C(=O)NC1(C)CCS(=O)(=O)C1 (stereo not drawn) ?
ALR H2O2 inh: 2; UCH37 inh: 0.4; HNF4A DNA FP: -0.6; rRNA inh HTS: 20; Ecoli growth: 0.71; B2AR ag: 2; FGF22 binding: inactive; rRNA inh HTS OD600: 8; rRNA inh HTS RFP: 4.5

Results for O=C(COC(=O)CCC(=O)c1cccs1)NCc1ccc(Cl)cc1 ?
ALR H2O2 inh: -1; UCH37 inh: -1.2; HNF4A DNA FP: 0.6; rRNA inh HTS: -4; Ecoli growth: 0.67; B2AR ag: -5; FGF22 binding: inactive; rRNA inh HTS OD600: 0; rRNA inh HTS RFP: 1.9

Results for O=C(NCc1ccccc1CN1CCCC1)c1ccc(S(=O)(=O)Nc2ccccc2F)cc1 ?
HNF4A DNA FP: -0.3; rRNA inh HTS: 6; FGF22 binding: inactive; rRNA inh HTS OD600: 4; rRNA inh HTS RFP: 1.6

Results for O=CN1CCN(C(=O)c2cc3cc(Cl)ccc3[nH]2)CC1 ?
ALR H2O2 inh: -4; UCH37 inh: 0.9; HNF4A DNA FP: -0.8; rRNA inh HTS: 12; Ecoli growth: 0.63; B2AR ag: 4; FGF22 binding: inactive; rRNA inh HTS OD600: 11; rRNA inh HTS RFP: 2.8

Overlap with the part before: 2 entries; new compounds follow.
Results for O=C(NCc1ccccc1CN1CCCC1)c1ccc(S(=O)(=O)Nc2ccccc2F)cc1 ?
HNF4A DNA FP: -0.3; rRNA inh HTS: 6; FGF22 binding: inactive; rRNA inh HTS OD600: 4; rRNA inh HTS RFP: 1.6

Results for O=CN1CCN(C(=O)c2cc3cc(Cl)ccc3[nH]2)CC1 ?
ALR H2O2 inh: -4; UCH37 inh: 0.9; HNF4A DNA FP: -0.8; rRNA inh HTS: 12; Ecoli growth: 0.63; B2AR ag: 4; FGF22 binding: inactive; rRNA inh HTS OD600: 11; rRNA inh HTS RFP: 2.8

Results for CCC(C)[C@H](N)c1cn([C@@H](Cc2cc3ccccc3[nH]2)C(=O)N2CCNCC2)nn1 (stereo partly drawn) ?
ALR H2O2 inh: -14; UCH37 inh: 2.5; HNF4A DNA FP: 1.2; rRNA inh HTS: 0; Ecoli growth: 0.81; B2AR ag: 2; FGF22 binding: inactive; rRNA inh HTS OD600: 12; rRNA inh HTS RFP: 11

Results for CN(C)C(=O)c1cc2c(c(-c3cccc(-c4ccccc4F)c3)n1)[C@@H](CCO)N(S(C)(=O)=O)C2 ?
HNF4A DNA FP: 2.2; rRNA inh HTS: 1; FGF22 binding: inactive; rRNA inh HTS OD600: -1; rRNA inh HTS RFP: -1.8

How did Nc1ccc2c(c1)Cc1cc(N)c(Cl)cc1-2 do in these assays?
HNF4A DNA FP: 1.1; rRNA inh HTS: -31*; B2AR ag: 8; FGF22 binding: inactive; rRNA inh HTS OD600: 21*; rRNA inh HTS RFP: -11*

Results for COc1cccc2cc(C(=O)Nc3cccc(C)n3)c(=O)oc12 ?
ALR H2O2 inh: -12; UCH37 inh: 2.9; HNF4A DNA FP: -5.9; Ecoli growth: 0.66; B2AR ag: -7

What do the screens show for `CN(CC(=O)NCc1ccco1)S(=O)(=O)c1cccc2cccnc12`?
ALR H2O2 inh: 43; UCH37 inh: 7.2; HNF4A DNA FP: -1.6; rRNA inh HTS: 13; Ecoli growth: 0.75; B2AR ag: 2; FGF22 binding: inactive; rRNA inh HTS OD600: 12; rRNA inh HTS RFP: 0.8

What do the screens show for `C#CCOCCOCCOCCNc1nc(N2CCN(C(=O)[C@H]([C@@H](C)O)n3cc(CCCCN)nn3)CC2)nc(N2CCN(C(=O)[C@H]([C@@H](C)CC)n3cc(CCCCN)nn3)CC2)n1`?
ALR H2O2 inh: 9; UCH37 inh: 0.7; HNF4A DNA FP: 5.1; rRNA inh HTS: 10; B2AR ag: -2; FGF22 binding: inactive; rRNA inh HTS OD600: 11; rRNA inh HTS RFP: 7.4

What do the screens show for `O=C(N/C(C(=O)N1CCOCC1)=C(\Sc1ncccn1)c1ccccc1)c1ccccc1`?
UCH37 inh: 7.4; HNF4A DNA FP: -1.2; Ecoli growth: 0.7; B2AR ag: 21

How did COc1ccc(N=CC2CCCCC2=O)c([N+](=O)[O-])c1 (stereo not drawn) do in these assays?
UCH37 inh: 3.9; HNF4A DNA FP: 3.3; rRNA inh HTS: 16; Ecoli growth: 0.64; B2AR ag: -7; FGF22 binding: inactive; rRNA inh HTS OD600: 12; rRNA inh HTS RFP: 0.0

Results for COc1cc2[nH]cc(C(=O)NCCc3ccccc3)c(=O)c2cc1OC ?
ALR H2O2 inh: -2; UCH37 inh: -5.9; HNF4A DNA FP: 3.6; Ecoli growth: 0.73; B2AR ag: 4

How did O=C(NCc1ccccc1)c1cccc(COc2cccc(Cl)c2)c1 do in these assays?
ALR H2O2 inh: -3; UCH37 inh: 2.5; HNF4A DNA FP: 1.4; Ecoli growth: 0.75; B2AR ag: 1

What do the screens show for `O=C1CC(c2cccs2)Cc2nc(NCC3CCCO3)ncc21` (stereo not drawn)?
UCH37 inh: 0.4; HNF4A DNA FP: -2.3; Ecoli growth: 0.71; B2AR ag: -5

Results for O=C(OCc1csc(-c2ccccc2)n1)c1ccc(O)cc1 ?
ALR H2O2 inh: 32; HNF4A DNA FP: 1.2; rRNA inh HTS: -15; B2AR ag: 3; rRNA inh HTS OD600: -6; rRNA inh HTS RFP: -1.6

Results for COc1ccc(-c2nc3c4ccccc4ccn3c2CN2CCCCC2)cc1 ?
ALR H2O2 inh: -21; UCH37 inh: -18; HNF4A DNA FP: 2.8; rRNA inh HTS: -16; Ecoli growth: 0.66; B2AR ag: -14; FGF22 binding: inactive; rRNA inh HTS OD600: -10; rRNA inh HTS RFP: 0.8
